TRPML1 agonist: qHTS for Agonists of the Human Mucolipin Transient Receptor Potential 1 (TRPML1) | 410,000 compounds, 0.12% hits | TRPML1-expressing cells, Ca2+ dye fluorescence, FDSS; host cell line not named in the record; reference of the full effect not given here | activation, % (concentration not given with the values) | AID 624414, 2012 | Mucolipin-1 (Homo sapiens), Q9GZU1; in the data active = activation above about 50%; inconclusive = about 30% to 50%; inactive = below about 30%; note: 0% is about no effect; the text of the record puts the active cut at 80%
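Tet-induced TRPML1-DL cells, 1,500 per well, cultured overnight, were loaded with a no-wash Ca2+ dye for 45–90 min. Calcium fluorescence was recorded on the FDSS for 110 s after compound addition, before the EC80 agonist (4 uM 54-4) was added.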
TRPML1 blocker: qHTS for Inhibitors of the Human Mucolipin Transient Receptor Potential 1 (TRPML1). Mucolipin-1 (Homo sapiens), Q9GZU1. TRPML1-inducible cells, Ca2+ dye fluorescence, FDSS; hits give low values; inhibition of EC80 agonist-evoked calcium signal. activity change, negative = inhibition, % (no concentration beside the values). 390,000 compounds, 0.02% hits; in the data active means activity change below about -50%; inconclusive means about -30% to -50%; inactive means above about -30%;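 note: stimulus is agonist 54-4 at its EC80 concentration; % is set by controls: 0 for no effect and ±100 for the full control effect; compound concentration not given in the record; the text of the record puts the active cut at -80%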
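Tet-induced TRPML1-DL cells loaded with Ca8 no-wash calcium dye were read kinetically on FDSS. Compound addition was followed by EC80 agonist 54-4 (4 uM final); inhibition was read over 110 s.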
D2 ag: Beta-Arrestin HTS for Positive Allosteric Modulators of the Human D2 Dopamine Receptor: Agonists | activation, % (no concentration beside the values) | 360,000 compounds, 0.084% hits | AID 624465, 2012 | D(2) dopamine receptor (Homo sapiens), P14416 | DiscoveRx PathHunter D2 beta-arrestin, luminescence, 90 min; 100% = 57 uM dopamine signal; in the data active = activation above about 40%; inconclusive = about 15% to 40%; inactive = below about 15%; note: compound concentration not given in the record; the text of the record calls up to 30% inactive
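DiscoveRx PathHunter D2 beta-arrestin cells (2,100/well) attached overnight, then compound-stimulated 90 min at 37 C in HBSS/10 mM HEPES/0.1% Tween-20 buffer; beta-galactosidase complementation read by luminescence after 1 h at ambient temperature. Dopamine 57 uM final (EC100) as control.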
PINK1 expr mod: A Quantitative High throughput Screen to Identify Chemical Modulators of PINK1 Expression. AID 624263, 2012. PINK1 immunofluorescence, high-content cytometry, 24 h. 410,000 compounds, 0.2% hits. Potency, µM (titrated, usually from 76.6 µM), for the others: at the highest dose activation (PINK1 increase), usual class: activators; active = well fitted activation curve with a large enough effect; inconclusive = small, poorly fitted or top-dose-only effect; inactive = flat fitted curve, though single readings scatter; cell line not stated here;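 note: potency is the fitted concentration of half-maximal effect; % of control where 0% means no effect; nearly all actives have a fitted effect of over 65% in size; a mitochondrial uncoupler was the plate control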
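PINK1 protein level read as immunofluorescence by microplate cytometer in a fixed, stained stable cell line after 24 h exposure to five compound concentrations, with CCCP as control.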
CtBP-E1A blk: qHTS Assay for Inhibitors of the CtBP/E1A Interaction | CtBP / adenovirus E1A interaction (AlphaScreen) | AlphaScreen GST-E1A/His-CtBP binding, 1536-well; hits give low values; control for the full effect not named in the record | activity change, % (no concentration beside the values) | 340,000 compounds, 0.49% hits; in the data active means activity change below about -65%; inconclusive means about -30% to -65%; inactive means above about -30%; note: % is set by controls: 0 for no effect and ±100 for the full control effect
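Steps: dispense buffer (Tris pH 8.0, NaCl 300 mM, TCEP 1 mM, BSA, Tween 20); add 5X protein mix (GST-E1A, His-CtBP, 125 nM each); pin 23 nL compound; 2 h at 37 °C, dark; add 5X beads (50 ug/mL); 1 h; read.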
Six1-Eya2 blk: qHTS Assay for Inhibitors of the Six1/Eya2 Interaction. AlphaScreen GST-Six1/His-Eya2 binding, biochemical; hits give low values; control for the full effect not named in the record. activity change, % (no concentration beside the values). 360,000 compounds, 0.56% hits. AID 651725, 2012; in the data active = activity change below about -65%; inconclusive = about -30% to -65%; inactive = above about -30%; note: % is set by controls: 0 for no effect and ±100 for the full control effect
Target sequence (O00167 whole entry, looked up): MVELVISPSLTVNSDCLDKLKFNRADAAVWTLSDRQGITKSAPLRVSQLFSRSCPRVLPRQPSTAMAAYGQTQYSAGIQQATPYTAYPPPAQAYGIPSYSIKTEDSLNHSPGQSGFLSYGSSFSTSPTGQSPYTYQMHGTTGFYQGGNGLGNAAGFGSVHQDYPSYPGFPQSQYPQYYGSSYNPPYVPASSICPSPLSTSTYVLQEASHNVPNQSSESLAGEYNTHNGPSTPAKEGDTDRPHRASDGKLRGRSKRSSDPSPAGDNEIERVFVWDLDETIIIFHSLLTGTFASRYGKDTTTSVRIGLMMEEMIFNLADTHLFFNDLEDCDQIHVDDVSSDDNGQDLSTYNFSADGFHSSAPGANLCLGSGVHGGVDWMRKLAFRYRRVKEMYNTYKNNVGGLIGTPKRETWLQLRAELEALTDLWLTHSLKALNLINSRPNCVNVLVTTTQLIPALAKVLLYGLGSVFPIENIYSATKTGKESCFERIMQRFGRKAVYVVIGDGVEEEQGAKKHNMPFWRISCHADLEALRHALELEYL
Target sequence (Q15475 whole entry, looked up): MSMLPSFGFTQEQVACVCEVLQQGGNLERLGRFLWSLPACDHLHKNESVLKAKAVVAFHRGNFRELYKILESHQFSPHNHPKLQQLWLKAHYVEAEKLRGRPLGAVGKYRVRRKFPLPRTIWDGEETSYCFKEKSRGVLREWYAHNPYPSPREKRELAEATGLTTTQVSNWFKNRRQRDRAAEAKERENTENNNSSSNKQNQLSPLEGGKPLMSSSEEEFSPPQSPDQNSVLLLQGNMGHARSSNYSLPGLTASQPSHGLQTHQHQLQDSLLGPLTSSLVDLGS
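Compounds are tested against tagged Six1 and Eya2 proteins bridged by glutathione donor and nickel acceptor beads; after a one-hour incubation at 37 °C without light, AlphaScreen emission is recorded.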
The depositor's hits bear a star; ? = inconclusive; nt = no result given; & = joins results of further samples; [ ] = remark or other dose.

Under each structure – TRPML1 agonist, TRPML1 blocker, D2 ag, PINK1 expr mod, CtBP-E1A blk, Six1-Eya2 blk
CCN(CC)S(=O)(=O)c1ccc(O)c(C(=O)OCC(=O)N2c3ccccc3CC2C)c1 (stereo not given)
→ 1.5, 12, 0.1, 0.1%, 0, 10
O=C(COC(=O)c1cccs1)NC12CC3CC(CC(C3)C1)C2
→ -0.5, -10, -0.5, -0.5%, -13, 11
C=C(C)C1CC=C(C)/C(=N/NC(=O)CNc2ccc(C)cc2C)C1 (stereo not given)
→ 0.4, 9, -1.6, 15%, 5, -1
COc1ccccc1-c1nn2c(C(F)(F)F)nnc2s1
→ -1.1, 10, -1.9, -1.1%, 6, 1
COCc1[nH]c(=S)[nH]c(=O)c1C
→ -0.5, 16, -1.2, -0.5%, 2, 7
Cc1ccc(C(=O)Cn2ncsc2=N)cc1
→ -0.1, -11, -1.7, 4.6%[38.3 µM], -1, -1
Cc1ccc(S(=O)(=O)C2(C(=O)N3CCCC(C)C3)CC2)cc1 (stereo not given)
→ -0.4, 2, -4.4, ?, 15, 6
CCOC(=O)C(CC)n1cnc2c(nnn2-c2cccc(OC)c2)c1=O (stereo not given)
→ 0.3, 13, -2.0, 0.4%, 1, -13
O=C(COc1ccccc1[N+](=O)[O-])Nc1ccc2c(c1)CCC2
→ -0.6, -10, 2.0, 3.4%, nt, -4
CCCCn1c(CN2CCN(c3ccc(F)cc3)CC2)nc2c1c(=O)n(C)c(=O)n2C
→ -0.1, 17, -4.4, -1.0%, 2, -1
O=C(c1ccc2c(c1)N(Cc1ccc(F)cc1)C(=O)c1ccccc1S2(=O)=O)N1CCN(Cc2ccccc2)CC1
→ 0.1, 48, nt, 0.3%, nt, nt
CCOC(=O)c1c[nH]c(=S)n1C
→ 0.7, 0, -4.2, 0.5%, 2, 3
CCN1C(=O)c2ccccc2S(=O)(=O)c2ccc(C(=O)N3CCOCC3)cc21
→ 0.4, 4, -1.9, -0.5%, 7, 7
COc1cccc(C(=O)NC(=S)Nc2ccccc2N2CCCCC2)c1
→ 0.2, 11, -5.0, 8.9%, ?, -29
Fc1ccc(NCc2ccccc2F)cc1Cl
→ 0.0, 0, 0.3, 0.6%[38.3 µM], 14, 16
COc1ccc(C2N(c3ccc(Cl)cc3)C(=O)C3CCCN32)cc1 (stereo not given)
→ 0.3, 0, -0.9, 3.0%, 4, 2
O=C(O)CSC(C(=O)Nc1ccc(Br)cc1)c1ccccc1 (stereo not given)
→ -0.3, -9, -1.0, 0.6%, 2, 12
CCN(CC)c1ccc(C=N/C(C#N)=C(\N)C#N)cc1
→ 7.6, -12, -3.3, ?, -27, -14
CC(C)Oc1ccc(CNC(=O)c2cccc(NC(=O)c3nsc4ccccc34)c2)cc1
→ 0.8, 27, nt, -1.6%, nt, nt
CC(C)C[C@H]1CN(CCCC[C@H]2CNC(=O)C(=O)N2CC2CCCCC2)C(=O)C(=O)N1CCc1ccccc1
→ -0.4, nt, nt, 0.8%, 28, 45
C/C(=C\c1cccc(Br)c1)C(=O)c1c(C)cc(C)[nH]c1=O
→ 0.5, 0, -1.9, 0.1%, 2, -2
O=C1COc2cc(S(=O)(=O)CCC(=O)N3CCN(c4ccccc4F)CC3)c(Cl)cc2N1
→ 1.1, -14, nt, 0.0%, nt, nt
CS(=O)(=O)N(CC(=O)Nc1cccc([N+](=O)[O-])c1)c1ccccc1F
→ 0.8, 2, -6.5, 0.2%, nt, 1
CCOC(=O)c1ccc(NC(=O)Oc2cc(C)c(Cl)cc2C(C)C)cc1
→ 2.1, 3, 5.0, 16%, nt, 11
CN(CC(=O)Nc1ccccc1C(=O)NC1CC1)Cc1ccccc1F
→ -0.6, 30, -4.1, -0.7%, 0, 6
CCc1cc(=O)oc2cc(C)cc(OCC(=O)NCc3ccccn3)c12
→ -1.3, -7, 5.2, 0.4%, -4, -4
Cc1cccc(CC(C)NC(=O)c2cc(COc3ccc(F)cc3F)on2)n1 (stereo not given)
→ -1.9, -12, 0.0, 0.1%, 3, 2
CCCS(=O)(=O)N1CCN=C1SCc1cccc(F)c1
→ -0.7, -15, -1.7, 1.0%, nt, 13
Cc1ccc(C(=O)OCC(=O)c2ccc(Cl)s2)s1
→ 1.3, -12, -5.1, -1.2%, 14, 24
CC1CCN(S(=O)(=O)c2ccc(NC(=O)Cc3ccccc3)cc2)CC1
→ -0.1, -10, -2.3, nt, -29, -16

Full records, quoted from the list. Order of values: TRPML1 agonist	TRPML1 blocker	D2 ag	PINK1 expr mod	CtBP-E1A blk	Six1-Eya2 blk
Entry for CCOC(=O)c1ccc(NC(=O)Oc2cc(C)c(Cl)cc2C(C)C)cc1 : 2.1	3	5.0	16%	nt	11
Entry for O=C(O)CSC(C(=O)Nc1ccc(Br)cc1)c1ccccc1 (stereo not given) : -0.3	-9	-1.0	0.6%	2	12
Entry for CCc1cc(=O)oc2cc(C)cc(OCC(=O)NCc3ccccn3)c12 : -1.3	-7	5.2	0.4%	-4	-4

Further results follow.
Under each structure – TRPML1 agonist, TRPML1 blocker, D2 ag, PINK1 expr mod, CtBP-E1A blk, Six1-Eya2 blk
CCCNC(=O)C1CC(=O)N(c2ccc(OCC)cc2)C1 (stereo not given)
→ -0.3, -5, -0.6, -0.6%, 5, 12
CCOc1ccc(CCNC(=O)COC(=O)Cn2nc(C)c([N+](=O)[O-])c2C)cc1OCC
→ 0.0, 2, -5.3, 1.6%, -1, 0
CCCNC(=O)c1ccccc1NC(=O)c1ccccc1SC
→ -1.5, -6, -5.0, 2.3%, nt, 9
COc1ccc(COc2cc(-c3cccc(OC)c3)nc3ccc(NC(=O)c4ccc(N(C)C)cc4)cc23)cc1
→ 0.5, -7, -0.1, 8.7%, -11, -17
Cc1cc(C)nc(/N=C2\NC(=O)CC(C(=O)O)N2CCc2c[nH]c3ccccc23)n1 (stereo not given)
→ -0.8, 4, 3.0, 1.9%, -3, -2
O=C(c1ccccc1F)N1CCN(c2cnn(-c3cccc(Cl)c3)c(=O)c2Cl)CC1
→ 0.1, -4, 2.9, 0.6%, nt, -20
O=C(CSc1nc2ccccc2n1S(=O)(=O)c1ccccc1)N1CCCC1
→ 0.0, 16, 2.6, 0.7%, 3, -2
COc1ccc(-c2csc(NC(=O)c3ccc(N4C(=O)CCC4=O)cc3)n2)cc1
→ -0.5, -6, 3.8, 9.1%, nt, 0
Cc1cc(C)c(NC(=O)CNC(=O)CN2C(=O)NC3(CCCc4ccccc43)C2=O)c(C)c1 (stereo not given)
→ -0.8, -14, -2.0, 0.1%, 3, 7
CC(Oc1ccc(F)cc1)C(=O)Nc1cccc(S(=O)(=O)N(C)c2ccccc2)c1 (stereo not given)
→ 0.0, 9, 0.1, 3.1%, -2, -2
COc1ccc(NC(=O)COC(=O)CCc2ccc(S(=O)(=O)N3CCOCC3)cc2)cc1Cl
→ 0.8, -4, -1.7, -1.3%, -16, 6
O=C(CNC(=O)N1CC(=O)Nc2ccccc21)Nc1ccc(Cl)cc1Cl
→ -0.7, -1, -2.6, 2.9%, 0, 1
COc1ccccc1N1CCc2c(C)nc3c(OC)cccc3c21
→ -0.8, 8, -0.1, -4.8%[38.3 µM], -4, -2
CCC(C)NC(=O)C1CCN(S(=O)(=O)c2ccc(OC)cc2)CC1 (stereo not given)
→ 0.1, -2, -1.9, 2.5%[38.3 µM], 1, 2
COc1cc(Cl)ccc1OCc1cc(C(=O)NC2CCc3ccccc32)no1 (stereo not given)
→ 2.0, 9, -0.8, 25%, 8, 7
Cc1nn(Cc2ccc([N+](=O)[O-])cc2)c(=O)n1N(C)c1ncc(C(F)(F)F)cc1Cl
→ 6.1, 12, -0.6, 2.7%, -3, -1
COc1cccc(C(=O)N/N=C(/CCC(=O)O)c2ccccc2)c1
→ 1.4, 1, -1.6, -0.7%, 4, 5
CCOc1ccc(NC(=O)CN(C)C(=O)c2cc(-c3ccc(OC)cc3)nc3ccccc23)cc1OCC
→ -0.2, 0, 5.2, 3.6%, -5, -15
COc1cc2ccc(=O)oc2cc1OCC(O)C(C)(C)O (stereo not given)
→ -0.2, -4, -3.0, 0.9%, 0, 14
O=C(COC(=O)c1ccc2c(c1)OCCO2)NCCc1ccccc1
→ 2.7, -7, -2.3, 6.1%, 7, 5
CC(=O)c1cccc(NS(=O)(=O)c2cc3c(cc2C)NC(=O)CO3)c1
→ 1.1, -19, -1.9, -1.3%, 9, 4
CCCC(=O)N1CCC1(C)C(=O)Nc1scc(C)c1C#N (stereo not given)
→ -0.7, nt, -5.0, 0.4%, 3, 4
C=C(C)Cn1c(CCNC(=O)CCC)nc2ccccc21
→ -0.8, 55, -0.2, -3.8%, 0, -1
CC1(C)CC(NS(=O)(=O)c2ccc(F)cc2)CC(C)(C)N1
→ 0.4, -1, -1.6, 3.7%, 0, -1
CCOc1ccc(NC(=O)N[C@@H](CCSC)C(=O)OC)cc1
→ -0.4, 9, -2.1, -6.3%[38.3 µM], 0, 4
Nc1nc(N)nc(-c2cc(C(F)(F)F)ccc2Cl)n1
→ -0.7, 5, -6.8, -0.9%, 9, 2
CN(CC(=O)NC1CCCCCC1)S(=O)(=O)c1cnc[nH]1
→ 0.5, -11, 5.0, -2.0%, nt, 2
O=C(CCC1CCCN(C(=O)Cc2cccc(F)c2)C1)N1CCN(c2ccccn2)CC1 (stereo not given)
→ 3.1, 7, -1.7, 1.6%, -23, 0
ClCc1nnc(-c2cc3c(s2)CCCC3)o1
→ -0.8, 3, -4.0, -1.5%, 4, 2
CSCCC(NC(=O)c1ccccc1Br)C(=O)N1CCCCCCC1 (stereo not given)
→ -0.5, 0, -3.6, 1.8%, 8, 8
CC1=C(C)C(=O)OC(C(C)C2CCC3C4CC=C5CC(OC6OC(COC7OC(CO)C(O)C(O)C7O)C(O)C(O)C6O)CC(O)C5(C)C4CCC23C)C1 (stereo not given)
→ nt, nt, -2.8, 2.2%, -7, -5
COc1cc(CCC(=O)OCC(=O)Nc2ccc3c(c2)OCO3)cc(OC)c1OC
→ -0.3, -8, 3.8, 3.0%, -4, -3
C=CCCN(C1CCCC1)S(=O)(=O)c1ccccc1Br
→ 3.4&2.3, 44&18, 0.6, 6.5%, 5, 44
CCC(=O)N1CCc2cc(S(=O)(=O)NCCCOC)ccc21
→ 0.6, -9, 1.9, -1.0%, 4, 0
CCCCc1nn2c(=O)cc(COC(=O)c3ccccc3NC(=O)C(C)(C)C)nc2s1
→ 0.1, -17, nt, -2.2%, nt, nt
CCCCCC(=O)Nc1ccc(C2C(=O)c3ccccc3C2=O)cc1
→ nt, nt, -7.1, 2.2%, 9, 8
COC(=O)c1cccc(NC(=O)C(C)(C)C)c1
→ 0.1, -7, -0.3, 3.3%, 7, 3
Cc1ccc(C)c(OCC(=O)NNC(=O)c2ccc(=O)[nH]c2)c1
→ 0.0, 5, 8.1, 0.0%, 1, 6
CCN(CC)S(=O)(=O)c1ccc(/C=C/C(=O)NC2CCCCC2)cc1
→ -0.2, -2, -1.3, 0.6%, 3, 1
